Bioassay records as filed in PubChem BioAssay.
Yeast UUG start: alters start codon recognition fidelity in yeast. S. cerevisiae UUG-firefly luciferase reporter, luminescence/redox ratio. AID 602363. activity score, % at 18.7 µM. 0.13% of 350,000 active;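 active = replicate mean at a twofold rise or more, about +100% in these data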;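 also: firefly luciferase made from a UUG start codon reports start codon fidelity; reporter light over untreated wells divided by growth signal over untreated wells; some hits fall short of that in this replicate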
CSC inhib: blocks cancer stem cells; 1.1% of 300,000 active; cancer stem cell-like cells viability, luminescence; inhibition, % at 7.5 µM; AID 2717;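 active = mean at 75% or more and at least half the replicates too; tested in HMLE shEcad cells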;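 also: 0% = median of negative and 100% = median of positive control wells; the first replicate is given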
HIV Env fusion: inhibitors of HIV Env-mediated cell fusion | HeLa-JRFL Env/CEM21 cell fusion, luciferase | inhibition, % at 12.3 µM | 1.1% of 360,000 active;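 active = mean replicate inhibition score of at least 50 and every replicate individually at or above 50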;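 also: 0% = plate neutral controls and 100% = maraviroc near 300 nM; one replicate is shown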
MT1-MMP act inh: MT1-MMP (human) activation inhibition; 0.061% of 360,000 active; GFP/RFP ratio change, % at 20 µM; AID 651647; HT1080 RFP-PRO-GFP cells, GFP/RFP ratio fluorescence, overnight; percent of plate control window, DMSO zero; P50281;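 active = GFP/RFP ratio change of at least 30% with cell ATP level not reduced by more than half and red fluorescence within 50% of control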; also: strong numbers were not always called active
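Compound: 20 µM single dose, 1% DMSO / System: HT1080 RFP-PRO-GFP cells / Controls: DMSO and RFP-L50D-GFP cell wells / Read-out basis: GFP/RFP fluorescence ratio / Schedule: overnight compound exposure at 37 °C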
eIF4H inh: inhibitors of RNA binding by human eIF4H; Q15056; eIF4H fluorescence polarization binding assay; inhibition, % at 35 µM; 0.94% of 290,000 active; AID 2012;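 active = 50% or more with normal probe brightness, or confirmed in later tests; about a fifth of its hits are not listed in these tables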;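 also: calls also rest on retests at 20 µM and on dose response follow-up; 0% = protein and probe with vehicle and 100% = probe without protein; strong numbers were not always called active; many hits fall short of the cut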
Rce1 inh: blocks yeast Ras-converting enzyme | Q03530 | AID 2563 | calls only | yeast membranes, quenched prenylated peptide cleavage fluorescence | 0.27% of 290,000 active;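 active = fall in fluorescence gain of 50% or more versus controls, with final raw signal at or below 3038400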;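 also: plate controls were neutral control wells for no effect and wells lacking membranes for full effect; tested at 10 µM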
Target sequence (Q03530 whole entry, looked up): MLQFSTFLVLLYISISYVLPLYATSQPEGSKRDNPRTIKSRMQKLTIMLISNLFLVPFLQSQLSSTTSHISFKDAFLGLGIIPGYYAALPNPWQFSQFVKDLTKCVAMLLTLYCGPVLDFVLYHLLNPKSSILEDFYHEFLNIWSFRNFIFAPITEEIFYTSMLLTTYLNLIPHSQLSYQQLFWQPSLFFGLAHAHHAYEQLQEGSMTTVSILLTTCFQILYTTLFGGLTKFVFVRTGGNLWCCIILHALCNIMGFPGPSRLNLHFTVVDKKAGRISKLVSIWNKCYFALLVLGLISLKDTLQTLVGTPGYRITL
PABP FP inh: blocks human PABP binding to poly(A) RNA | fluorescence polarization | inhibition, % at 35 µM | P11940 | 1% of 290,000 active | AID 2014;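 active = 50% or more with normal probe brightness, or confirmed in later tests; about a fifth of its hits are not listed in these tables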;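 also: calls also rest on retests at 20 µM and on dose response follow-up; controls were probe without protein and protein plus probe with vehicle; some compounds called inactive have numbers as strong as hits; many hits fall short of the cut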
MT1-MMP act inh RFP: recorded beside MT1-MMP act inh, whose call it bears; RFP signal change, %; measured here: RFP expression control read;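 0 = vehicle wells; hits needed this value within 50% of zero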
Active calls of the source: *; i = inactive; . = not tested or not shown. Compounds were not picked by outcome. Share with any hit: about 2.9%.

SMILES | Yeast UUG start | CSC inhib | HIV Env fusion | MT1-MMP act inh | MT1-MMP act inh RFP | eIF4H inh | Rce1 inh | PABP FP inh
COc1ccc(Cl)cc1S(=O)(=O)N1CCCC(C(=O)NCc2ccncc2)C1 (stereo unspecified) | -10.5 | -9.0 | 14.2 | 0.0 | -5.1 | -9.9 | i | -7.2
Cc1ccc(Cl)cc1Nc1nc(-c2sc(NC(=O)c3cccc(Cl)c3)nc2C)cs1 | . | 22.2 | . | . | . | -5.9 | i | 10.7
O=C(O)c1ccc(NC(=S)NC(=O)c2cccc(COc3ccccc3)c2)cc1 | . | . | -16.4 | 1.5 | 0.1 | 5.9 | i | 0.1
CC(C)(C)C(=O)Nc1ccc(N2CCN(c3ccc(C(F)(F)F)cn3)CC2)nc1 | . | -3.3 | 25.8 | 3.1 | -12.2 | -3.1 | . | -9.5
Cc1cccc(Oc2ncc(-c3ccc(Cl)cc3)cn2)c1C | -10.2 | 27.0 | . | 0.3 | -6.0 | -4.1 | i | 0.6
COC(=O)CNc1cc(S(=O)(=O)N2CCCCC2)ccc1Oc1cccc(C)c1 | 0.3 | -4.7 | 17.5 | 0.9 | -5.1 | 5.5 | . | 9.1
Oc1c(Cl)cc(Oc2cc(Cl)c(O)c(CN3CCOCC3)c2)cc1CN1CCOCC1 | -16.9 | . | 31.1 | -5.9 | -7.5 | . | . | .
Cc1ccccc1S(=O)(=O)N1C[C@H]2CON(C)[C@H]2C[C@H]1c1cccc(Br)c1 | -7.1 | . | 32.5 | -1.5 | -1.6 | . | . | .
Cc1[nH]c2ccc(C(=O)OC(C)C(=O)NC3CCCCC3C)cc2c1C (stereo unspecified) | -10.2 | 8.4 | 0.5 | 0.3 | -12.0 | . | . | .
O=C(O)C/C(=C\c1cc2c(cc1Br)OCO2)c1nc2ccccc2s1 | -14.4 | -2.0 | 6.8 | 5.4 | 7.5 | -7.3 | . | 10.0
NS(=O)(=O)c1ccc(NC(=O)CSc2ccccc2)cc1 | -1.0 | -9.7 | 6.6 | 0.4 | 7.2 | 12.0 | i | 10.3
Cc1cccc(OCC(=O)Nc2cc(C)ccc2O)c1 | -11.5 | 15.0 | . | -8.2 | -7.7 | -0.6 | i | -9.9
Cn1c(C(=O)Nc2ccccc2)cc2sccc21 | -13.2 | 2.6 | -83.9 | 5.0 | 3.3 | -13.6 | i | -1.4
O=C(/C=C/c1ccccc1[N+](=O)[O-])N1CCN(c2ccc(F)cc2)CC1 | -4.9 | . | 10.6 | 1.6 | -1.8 | -4.0 | i | -4.4
COCCNC(=O)C1(C)CCCN(Cc2ccc(-c3ccccc3)o2)C1 (stereo unspecified) | -16.3 | . | 4.1 | -1.0 | 2.5 | . | . | .
CCOC(=O)N1CCC(N2C(=O)c3ccccc3C2Nc2ccc(C)cc2)CC1 (stereo unspecified) | 11.6 | -3.2 | 8.1 | -1.3 | -0.5 | -1.2 | i | -0.6
CN(C(=O)c1cccc(NC(=O)Cc2cccc(NC(=O)C3CCN(C(=O)CCc4ccccc4)CC3)c2)c1)C1CC1 | 15.5 | . | 20.8 | 1.6 | -2.1 | . | . | .
COc1cc(Cl)cc(C2NC(=O)NC(C)=C2C(C)=O)c1OCC(=O)O (stereo unspecified) | -18.6 | -1.7 | -6.7 | 0.6 | 1.4 | -0.8 | i | 26.1
CCOC(=O)CCc1c(C)c2ccc(OCc3nn[nH]n3)cc2oc1=O | -15.6 | 7.8 | -63.2 | 2.9 | -2.4 | -1.2 | i | 13.3
O=C(OCC(=O)N1CCC(Cc2ccccc2)CC1)c1cc(Br)ccc1O | -20.3 | -7.1 | . | 1.2 | -2.3 | . | . | .
Cc1ccc(Cl)cc1NC(=S)N(CCCN1CCOCC1)Cc1ccco1 | -14.1 | -3.9 | 14.5 | 6.3 | 2.7 | -0.9 | i | -1.9
CCCc1cc(=O)c2c(O)cccc2o1 | . | -3.1 | 9.3 | 0.3 | -0.3 | -10.1 | i | 6.1
Nc1nc2c(s1)CCc1c-2cnn1-c1ccccc1 | -71.9 | 2.3 | . | 5.3 | 2.6 | -0.2 | i | 5.8
CCOc1ccc2ccccc2c1CNCCN1CCOCC1 | -3.6 | 4.3 | . | 0.0 | 1.1 | -1.2 | i | 33.8

Another view of some results above:
Every second line gives: Yeast UUG start	CSC inhib	HIV Env fusion	MT1-MMP act inh	MT1-MMP act inh RFP	eIF4H inh	Rce1 inh	PABP FP inh
CCOC(=O)N1CCC(N2C(=O)c3ccccc3C2Nc2ccc(C)cc2)CC1 (stereo unspecified)
→ 11.6	-3.2	8.1	-1.3	-0.5	-1.2	i	-0.6
CN(C(=O)c1cccc(NC(=O)Cc2cccc(NC(=O)C3CCN(C(=O)CCc4ccccc4)CC3)c2)c1)C1CC1
→ 15.5	.	20.8	1.6	-2.1	.	.	.
COc1cc(Cl)cc(C2NC(=O)NC(C)=C2C(C)=O)c1OCC(=O)O (stereo unspecified)
→ -18.6	-1.7	-6.7	0.6	1.4	-0.8	i	26.1
CCOC(=O)CCc1c(C)c2ccc(OCc3nn[nH]n3)cc2oc1=O
→ -15.6	7.8	-63.2	2.9	-2.4	-1.2	i	13.3
O=C(OCC(=O)N1CCC(Cc2ccccc2)CC1)c1cc(Br)ccc1O
→ -20.3	-7.1	.	1.2	-2.3	.	.	.
Cc1ccc(Cl)cc1NC(=S)N(CCCN1CCOCC1)Cc1ccco1
→ -14.1	-3.9	14.5	6.3	2.7	-0.9	i	-1.9

The listing continues:
SMILES | Yeast UUG start | CSC inhib | HIV Env fusion | MT1-MMP act inh | MT1-MMP act inh RFP | eIF4H inh | Rce1 inh | PABP FP inh
Cc1[nH]n(-c2ccc(Cl)cc2)c(=O)c1/C=N/c1nnc(-c2ccccc2)s1 | . | 5.7 | . | 6.3 | 3.7 | 9.0 | i | 0.7
CC(C)N(CC(N)=O)C(=O)c1sc2cc(F)ccc2c1Cl | . | 1.4 | 8.0 | 7.5 | 3.7 | 2.2 | i | -2.2
COc1ccc(NC(=O)c2sccc2SCc2cccc(C(F)(F)F)c2)cc1 | 8.3 | 21.7 | 80.0* | -7.4 | -13.9 | 1.9 | i | -11.3
O=C(CCc1ccccc1)Nc1ccccc1OC(=O)c1ccccc1 | -13.8 | . | -12.7 | -0.3 | -0.1 | . | . | .
COC(=O)c1ccc(NC(=O)CSc2nccn2CCc2ccccc2)cc1 | -25.4 | -9.0 | -114.2 | 5.2 | 1.4 | -3.1 | i | -4.5
O=C(Nc1ccccc1F)C1CCCN1S(=O)(=O)c1ccc(Cl)cc1 (stereo unspecified) | 10.5 | -12.1 | . | -2.0 | 1.4 | . | . | .
Cc1ccc(S(=O)(=O)C2(C(=O)Nc3ccc(Br)cc3)CC2)cc1 | . | 19.9 | 1.4 | 2.4 | -3.6 | -1.0 | i | -2.6
COc1cccc(Nc2nnc(SCn3nnc4ccccc4c3=O)s2)c1 | -18.0 | 0.3 | . | -5.3 | -3.8 | -10.7 | i | 5.9
Cn1c(=O)c2c(nc3sccn32)n(C)c1=O | -9.8 | -13.9 | . | -2.7 | 0.5 | -11.8 | i | 3.5
COc1cc(SC)ccc1C(=O)N1CCN(c2ccccc2F)CC1 | . | 6.8 | -10.0 | 1.1 | -3.5 | -9.0 | i | 3.2
Cc1ccc(C)c(NS(=O)(=O)c2ccc(-n3cccn3)cc2)c1 | -3.3 | . | -3.4 | 1.9 | -0.5 | . | . | .
S=c1[nH]nc(Cc2ccccc2)n1Cc1ccco1 | -23.0 | -3.9 | . | 5.2 | 0.8 | -1.3 | i | -6.8
COC(=O)NC(=S)N1CCOCC1 | -13.8 | -6.1 | -38.0 | 1.0 | 4.6 | -6.3 | i | -2.2
CCOc1ccc(NC(=O)COC(=O)CCCc2c[nH]c3ccccc23)cc1 | -7.6 | -10.2 | -29.0 | 1.0 | 2.1 | -6.7 | i | -6.7
O=C(NCc1ccccn1)NC12CC3CC(CC(C3)C1)C2 | -18.9 | -20.1 | -43.3 | 1.2 | 0.1 | -6.9 | i | 2.5
O=C(Cc1ccc(S(=O)(=O)N2CCCC2)s1)N1CCOCC1 | 3.3 | -6.8 | -4.2 | -4.7 | -2.7 | 5.4 | i | 8.4
Cn1c(SCC(=O)N2CCOCC2)nnc1-c1ccccc1 | -3.2 | 10.3 | . | -3.8 | -0.2 | -7.7 | i | -0.4
Cc1ccc2nc(SC(C)C(=O)Nc3cccc([N+](=O)[O-])c3)[nH]c2c1 (stereo unspecified) | -6.7 | . | 12.4 | -7.0 | -18.1 | -1.2 | i | 21.0
CCCCc1ccc(S(=O)(=O)Nc2ccc(C)c(NS(C)(=O)=O)c2)cc1 | -11.2 | -1.9 | 3.4 | 8.5 | -4.5 | -8.8 | i | -3.4
CCOc1ccc(C=NC23CN4CN(CN(C4)C2)C3)cc1 | 462.0* | -3.9 | -63.9 | 3.9 | 6.0 | -6.6 | i | -7.9
COc1cc(/C=N\NC(C)=O)ccc1OC/C=C/c1ccccc1 | -9.3 | 11.7 | 3.0 | -2.1 | 4.0 | -7.2 | i | -14.5
COc1ccc(S(=O)(=O)N2CCN=C2SCc2cccc(C)c2)cc1 | 11.1 | -3.4 | 14.0 | -1.9 | -1.0 | -10.6 | i | 0.2
CC(=O)Nc1ccc(C(=O)OCC(=O)Nc2c(F)cccc2F)cc1 | -13.8 | -2.4 | 2.6 | -4.6 | -1.8 | -6.2 | i | -5.4
CC1(C)Cc2c(cnn2-c2ccccc2)C(NC(=O)CCCn2cncn2)C1 (stereo unspecified) | -20.0 | 2.6 | 5.1 | -1.2 | 0.6 | -9.8 | i | -11.0
Cc1cccc(C)c1NC(=O)CN(C)C(=O)c1ccc(NS(=O)(=O)c2ccc3[nH]c(=O)[nH]c3c2)cc1 | -1.0 | -4.4 | 0.0 | -2.2 | 1.0 | . | i | .
O=S(N1CCCCC1)C12CC3CC(CC(C3)C1)C2 (stereo unspecified) | . | -14.0 | 16.6 | 4.0 | 2.6 | 2.7 | i | 9.0
CCN(CC)C(=O)CN(c1cc2c(cc1OC)oc1ccccc12)S(=O)(=O)c1ccc(C)cc1 | -31.6 | 2.6 | . | -15.7 | -13.2 | -2.6 | i | -3.7
CCCCCCn1c(=O)n2n(c1=O)C[C@]1(OC(=O)NC3CC3)CN(S(=O)(=O)c3ccc(C)cc3)C[C@]1(O)C2 | 38.0 | . | -2.5 | 2.8 | -5.1 | . | . | .
COc1ccc(C(=O)Nc2nncs2)cc1S(=O)(=O)N1CCOCC1 | -9.8 | 3.7 | -5.6 | 0.5 | 0.6 | 0.9 | i | 5.2
COC(=O)CSc1nsc(SCC(=O)OC)n1 | -20.6 | 4.2 | 12.9 | -0.4 | 1.3 | -1.0 | i | -11.2
Cc1cc(NC(=O)c2ccc(Cl)cc2Cl)no1 | -25.6 | 0.2 | -28.4 | 9.3 | 4.7 | 5.0 | i | 9.5
Cc1sc(NC(=O)c2c(F)cccc2F)nc1-c1ccccc1 | 5.3 | 32.2 | -22.6 | -6.7 | -4.5 | 3.9 | i | 5.6
CC(=O)OCn1nnc2ccccc2c1=O | -24.4 | -8.7 | . | 3.2 | 3.9 | -8.3 | i | -10.8
Nc1cc(=O)[nH]c(SCC(=O)Nc2cccnc2Cl)n1 | -21.2 | -4.9 | 3.2 | -1.2 | 2.9 | -2.8 | i | 4.3
CN(C)c1cccc2c(S(=O)(=O)NCc3ccc(S(N)(=O)=O)cc3)cccc12 | -6.5 | 0.7 | 10.7 | 6.7 | -5.8 | -8.2 | . | 6.4
CCN(CC(=O)NC1CCS(=O)(=O)C1)S(=O)(=O)c1c(C)c(C)cc(C)c1C (stereo unspecified) | . | 4.4 | -2.8 | 3.9 | 1.5 | . | i | .
CN(c1ccc(O)cc1)S(=O)(=O)c1ccc2ccccc2c1 | -17.6 | . | 9.0 | -8.1 | -3.2 | 3.5 | i | 11.5
CCn1c(CNC(=O)c2ccccc2Br)nnc1SCC(=O)NC1=NCCS1 | -19.0 | 31.4 | 4.4 | 2.2 | 5.8 | -0.8 | i | 12.1
